# Rango-impB inh = qHTS Assay for Inhibitors of Rango (Ran-regulated importin-beta cargo) - Importin beta complex formation; Importin subunit beta-1 (Homo sapiens), Q14974; Rango CFP/YFP FRET sensor + importin beta, 45 min; Potency, µM (series often up to 92.2 µM), without a hit: top-dose inhibition of complex formation; hit rate 0.031% among 340,000; active = rising FRET ratio curve, often small or poorly fitted; inconclusive = mostly compound fluorescence or quenching in the first reads; inactive = flat curves in all reads;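 further: potency means the concentration at half of the fitted maximal effect; 0% = DMSO wells and 100% = buffer wells lacking importin beta; nearly all actives have a fitted effect of over 15% in size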
#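 Inhibition scored from the CFP 486 nm/YFP 530 nm FRET ratio 45 min after adding 0.125 microM importin beta to 50 nM Rango biosensor preincubated 5 min with compound (room temperature, PBS with DTT, Tween-20, BSA). No-importin wells as positive control.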
# GLA inh pH 4.5 = qHTS Assay for Inhibitors of Human alpha-Galactosidase at pH 4.5. purified enzyme, 4-MU-alpha-Gal fluorescence, pH 4.5. activity change, negative = inhibition, % at 105 µM. 230,000 tested, under 10 active. AID 1467, 2008; inconclusive = small, poorly fitted or top-dose-only inhibition, or a rising curve; inactive = flat fitted curve, though single readings scatter; no compound was filed as active;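 further: 0% = full activity with enzyme and -100% = basal without enzyme; dose as in the result columns while the protocol names 77 µM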
# Target sequence (P06280 whole entry, looked up): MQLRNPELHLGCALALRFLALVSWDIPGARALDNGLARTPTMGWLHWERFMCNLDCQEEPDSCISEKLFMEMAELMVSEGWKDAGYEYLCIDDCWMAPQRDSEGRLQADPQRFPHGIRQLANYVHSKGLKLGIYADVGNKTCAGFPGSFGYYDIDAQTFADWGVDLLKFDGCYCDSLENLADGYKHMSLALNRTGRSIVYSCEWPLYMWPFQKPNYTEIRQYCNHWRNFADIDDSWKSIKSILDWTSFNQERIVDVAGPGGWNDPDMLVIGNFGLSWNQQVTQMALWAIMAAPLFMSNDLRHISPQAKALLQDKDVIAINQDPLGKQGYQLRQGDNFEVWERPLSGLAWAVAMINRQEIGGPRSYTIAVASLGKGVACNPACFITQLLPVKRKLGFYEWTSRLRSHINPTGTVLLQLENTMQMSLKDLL
# Rango dissoc inh = qHTS Assay for Inhibitors of RanGTP induced Rango (Ran-regulated importin-beta cargo) - Importin beta complex dissociation | hit rate 0.071% among 340,000 | Biochemical FRET Rango-importin beta, RanGTP-induced dissociation | AID 540253, 2011 | Potency, µM (top dose mostly 46.1 µM), for the others: at the top dose activity change, negative = inhibition; active means falling FRET ratio curve, often poorly fitted, with flat reads before Ran was added; inconclusive means other falling curves, or compound fluorescence or quenching; inactive means flat or rising ratio curve;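 further: potency means the concentration at half of the fitted maximal effect; % of control where 0% means no effect; nearly all actives have a fitted effect of over 45% in size; -100% = wells without RanGTP and RCC1; the record marks most hits as doubtful in a second field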
#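 Rango (0.1 uM)–importin beta (0.25 uM) complex; RanGTP-RCC1 trigger; 45 min RT; CFP/YFP FRET read.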
# miR-21 FLuc = qHTS Assay for Modulators of miRNAs and/orActivators of miR-21. HeLa miR-21 FLuc reporter, luciferase, 48 h. Potency, µM (top dose mostly 38.3 µM), for the others: at the highest dose reporter change, positive = more light. 340,000 tested, under 10 active; active = well fitted rising curve with a large enough effect; inconclusive = small, poorly fitted or top-dose-only effect; inactive = no such curve, though single readings can be large or run the other way;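 further: % of control where 0% means no effect; miR-21 action dims this reporter so a rising signal means less miR-21 action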
#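 Compounds were titrated across several concentrations (up to approximately 40 uM) and incubated 48 hours with HeLa miR-21-FLuc reporter cells (miR-21 target sequence downstream of FLuc, endogenous miR-21). Readout was firefly luciferase luminescence after lytic detection reagent.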
# * marks the source's active call; other numbers are inactive results; ? = inconclusive; . = no result given. The list is partial; count on the stated rates, not on these rows.
SMILES,Rango-impB inh,GLA inh pH 4.5,Rango dissoc inh,miR-21 FLuc
CC(C)NC(=O)c1sc2c(c1C(=O)Nc1cccnc1)CCCC2,-0.6%,4,-7%,10%
Cc1ccc([C@@H]2C3COCC=C3C(C#N)=C(N)C2(C#N)C#N)o1 (some centres not stated),?,9,?,-11%
COCCN(C(=O)COC(=O)/C=C/c1cccc(C(F)(F)F)c1)c1c(N)n(CC(C)C)c(=O)[nH]c1=O,-5.1%,.,-11%,.
O=C(c1ccc(OC2CCN(CCc3ccccc3)CC2)cc1)N1CCCCC1CCCO (configuration not stated),5.0%,.,-6%,0%
Cc1cc(NC(=O)c2cc(-c3ccccn3)nc3ccccc23)no1,0.2%,0,20%,7%
O=C(NCCc1ccccc1)Oc1ccc(Cl)cc1,-0.5%,-4,-6%,-58%
CCCCn1c(SCC(=O)NC2CCS(=O)(=O)C2)nc2ccccc2c1=O (configuration not stated),3.2%,.,-1%,4%
CCc1ccc(N=C2NC(=O)/C(=C/c3ccc(OCC(=O)O)cc3)S2)cc1,-3.6%,.,1%,1%
COC(=O)[C@@H](NCc1cccc(CN[C@H](C(=O)OC)C(C)C)c1)C(C)C,-0.6%,.,1%,1%
CC1(C)CCc2c([nH]c3ccccc3c2=O)O1,-2.4%,5,3%,-12%
COc1cc(/C=N/NC(=O)C(=O)/C=C2\NC3(CCCC3)Cc3ccccc32)ccc1O,5.6%,-2,16%,1%
CC1NC2(C(=O)N(Cc3ccccc3)c3ccccc32)C2C(=O)N(c3ccccc3)C(=O)C12 (configuration not stated),0.0%,1,-8%,1%
CC(=O)c1cccc(NC(=O)CSc2nc(=O)n(CCCN3CCOCC3)c3c2CCC3)c1,1.2%,.,-15%,.
COc1cc(CNCc2ccccn2)ccc1OCc1ccc(Cl)cc1,-3.5%,3,-7%,-16%
O=C(NCCCCc1ccccc1)c1cccc(NC(=O)C2CCCC2)c1,-1.4%,.,0%,.

# Compounds shown so far with an NH in an aromatic ring (two):
SMILES,Rango-impB inh,GLA inh pH 4.5,Rango dissoc inh,miR-21 FLuc
COCCN(C(=O)COC(=O)/C=C/c1cccc(C(F)(F)F)c1)c1c(N)n(CC(C)C)c(=O)[nH]c1=O,-5.1%,.,-11%,.
CC1(C)CCc2c([nH]c3ccccc3c2=O)O1,-2.4%,5,3%,-12%

# Following part:
SMILES,Rango-impB inh,GLA inh pH 4.5,Rango dissoc inh,miR-21 FLuc
CCOC(=O)C(=NCC1CCCO1)NNc1cc(Cl)ccc1Cl (configuration not stated),1.7%,3,-16%,0%
CCn1c(C)nc2c1C(=O)c1ccccc1C2=O,-1.6%,15,-3%,-12%
COc1cc(C#Cc2c(-c3cncn3C)n(C)c3ccc(-c4ccc(CN5CCOCC5)cc4)cc23)cc(OC)c1,?,.,?,.
Cc1ccc(OCC(=O)NC2CCCC2)c(C)c1,-3.3%,11,1%,-24%
CCCNc1ncc2c(=O)[nH][nH]c(=O)c2n1,-0.5%,.,19%,.
CC(=O)Nc1cc(C(=O)OC(C(=O)c2ccccc2)c2ccccc2)ccc1C (configuration not stated),?,-1,-15%,-6%
O=c1c2ccccc2ncn1CCCCOc1ccccc1F,-0.4%,.,16%,-10%
O=C(CCN1C(=O)S/C(=C/c2ccccc2)C1=O)Nc1ccc(C(=O)O)c(O)c1,6.1%,.,-1%,-14%
O=C(CSc1nc2ccccc2o1)Nc1ccccc1,-4.9%,-1,10%,-30%
CC1C(=O)O[C@@H]2C[C@@H](C)[C@@H]3CCC(=O)[C@@]3(C)[C@@H](O)[C@H]12 (some centres not stated),-0.3%,-4,-19%,-1%
CC1CCN(S(=O)(=O)c2cccc(C(=O)Nc3ccccn3)c2)CC1,4.2%,-2,1%,-9%
CC1(C)CC(=O)C=C(NCc2ccccc2)C1,-1.0%,5,1%,-2%
Cc1cccnc1NC(=O)c1cccc(S(=O)(=O)N2CCN(c3ccccc3)CC2)c1,-2.9%,.,2%,.
Cc1nn(C)c(Cl)c1C(=O)NCC(=O)NCc1ccccc1,?,11,-11%,1%
O=C(N/N=C\c1cc([N+](=O)[O-])ccc1N1CCCC1)c1ccccn1,-12%,-4,-11%,-15%
CCC(Sc1nc(=O)cc(N)n1CCc1ccccc1)C(=O)Nc1ccccc1C#N (configuration not stated),-1.2%,4,2%,4%
CN(C)c1ccc(C(=O)NCC(c2cccs2)N2CCOCC2)cc1[N+](=O)[O-] (configuration not stated),-1.5%,.,-20%,.
O=S(=O)(NCc1cccnc1)c1cccc2nsnc12,0.7%,8,1%,-1%
COC(=O)c1cc(O)cc(OC)c1C(=O)c1c(O)cc(C)cc1O,-0.8%,-1,0%,0%
COc1ccc(OC)c(S(=O)(=O)Nc2ccc(O)c3ccccc23)c1,2.5%,2,29%,25%
Cc1ccnn1-c1ccc(C(=O)N2CCCN(S(=O)(=O)c3ccc(F)cc3)CC2)cc1,0.3%,.,5%,.
NS(=O)(=O)c1ccc(NC(=O)Cn2nc(C(=O)O)c3ccccc3c2=O)cc1,?,.,-1%,0%
Cc1cc(C(=O)CSc2nnnn2C)c(C)n1C1CC1,-1.0%,3,-7%,-50%
CC(C)Sc1nc(N2CCOCC2)c2c3c(sc2n1)COC(C)(C)C3,0.0%,3,3%,-3%
Cc1cc(C(=O)c2cnc(/N=C/N(C)C)s2)c(F)cc1Cl,?,-9,?,-5%
Cc1[nH]c2ccccc2c1C(=O)CN1C(=O)NC2(CC(C)CC(C)(C)C2)C1=O (configuration not stated),1.4%,-15,7%,10%
CCOc1ccc(-c2nc3scc(-c4cccs4)c3c(=O)[nH]2)cc1,0.2%,22,-14%,-14%
CS/C(=C(/C#N)S(=O)(=O)c1ccc(Cl)cc1)N1CCOCC1,-0.3%,1,10%,2%
NS(=O)(=O)c1cc(C(=O)OCC(=O)NC2CC2)ccc1Cl,5.3%,1,-17%,4%
O=C(Nc1cccc2ncccc12)c1cccc(F)c1,2.4%,-15,2%,1%
COc1ccc(CC(=O)NCC(=O)Nc2ccccc2Br)cc1,-0.2%,.,5%,-1%
CC(=O)c1ccc(NC(=O)C2CCCN2S(=O)(=O)c2cccc3cccnc23)cc1 (configuration not stated),-5.8%,4,16%,1%
O=C(CCOc1ccccc1)Nc1ccnn1C1CCN(Cc2ccc(F)cc2)CC1,-4.2%,.,1%,11%
CC(C)Cn1c(=O)c(C(=O)Nc2cnccn2)c(O)c2ccccc21,-4.3%,0,5%,7%
COCCn1nnnc1C(c1cccc(OC)c1OC)N1CCN(C(=O)c2ccco2)CC1 (configuration not stated),-3.0%,.,-15%,0%
CN1CCOCCOCCOCCN(C)C1=S,-2.4%,6,6%,0%
CCN(c1ccccc1)S(=O)(=O)c1ccc(C(=O)N(C)Cc2cccs2)cc1,-0.9%,.,-1%,.
O=C(CCN1C(=O)S/C(=C\c2ccccc2)C1=O)NC1CCS(=O)(=O)C1 (configuration not stated),4.3%,.,0%,-6%
O=C(NC1CCCCC1)C(c1cccs1)N(CCCN1CCOCC1)C(=O)c1ccc(-c2ccccc2)[nH]1 (configuration not stated),-5.8%,-16,-4%,-17%
Cc1cc(C)cc(C(=O)N2CCC(CCC(=O)NC3CC3)CC2)c1,2.3%,.,5%,-1%
CCOC1(OCC)N=C(N)C2(C#N)C(c3cccc(C)c3)C12C#N (configuration not stated),-0.5%,2,-11%,-5%
COc1ccc(CCN=C(C)C2=C(O)C(c3ccccc3)OC2=O)cc1OC (configuration not stated),-0.7%,10,1%,8%
CCCCN(C(=O)CSc1nc(CCC)cc(=O)[nH]1)c1c(N)n(Cc2ccccc2)c(=O)[nH]c1=O,1.1%,.,-11%,.
Cc1ccc(Cn2c(SCC(=O)N3CC(=O)Nc4ccccc43)nc3ccccc3c2=O)cc1,-0.2%,-1,-10%,-7%
O=C(c1ccc(COc2ccccc2Br)o1)N1N=C(C(F)F)CC1(O)C(F)F (configuration not stated),-1.1%,-7,13%,0%
CCOC(=O)N1CCN(C(=O)CSc2nc(C)nc3c2c(=O)n(C)c(=O)n3C)CC1,1.8%,-6,-25%,3%
CCN(CC)C(=O)c1cc2cc([N+](=O)[O-])ccc2s1,2.9%,1,4%,-4%
COc1ccccc1N1CCN(CCC(=O)Nc2ccc3c(c2)OCO3)CC1,-1.8%,1,-3%,-7%
CCN(C#N)c1nc(NC(C)C)nc(NC(C)C)n1,-0.7%,-2,1%,-11%
Cc1ccnc(NC(=O)c2cccc(OC(F)F)c2)n1,0.1%,.,20%,-34%
Cn1c(SCc2ccccc2)nnc1-c1cccs1,0.3%,6,-4%,-36%
COc1cc(/C=N/NC(=O)c2cc(-c3cccs3)nc3ccccc23)ccc1O,-3.2%,2,14%,13%
Cc1ccc2nc(-c3ccc(NC(=O)CSCC(=O)O)cc3)sc2c1,2.9%,8,-4%,-33%
CCOc1ccccc1NC(=O)NCc1ccccn1,1.0%,.,-12%,-4%
COc1ccc(S(=O)(=O)N2CCC(O)(c3ccc(Cl)cc3)CC2)cc1OC,-0.2%,-6,-15%,5%
CN(C)S(=O)(=O)c1cccc(-c2nnc(SCCNCCO)n2-c2ccc(F)cc2)c1,-0.9%,-3,0%,-14%
CC(C)(C)Nc1cccccc1=O,-1.0%,-1,-10%,-1%
COC(=O)NC(NC(=S)Nc1ccccc1OC)C(Cl)(Cl)Cl (configuration not stated),-0.9%,3,6%,2%
O=C(CN1CCCCCCC1)NC(=O)NC1CCCCC1,1.6%,2,35%,-28%
Cc1cccc(N2CC(C(=O)O)CC2=O)c1 (configuration not stated),3.0%,1,1%,1%
# (next part)
SMILES,Rango-impB inh,GLA inh pH 4.5,Rango dissoc inh,miR-21 FLuc
CC(c1ccccc1)C1C(C#N)=C(N)SC(N)=C1C#N (configuration not stated),0.2%,-10,-7%,-1%
Cc1ccc(C(=O)C2CCN(CC(=O)NC3CCCC3)CC2)cc1,1.3%,.,-17%,-5%
Cc1nn(C(=O)c2ccco2)c(C)c1Sc1ccccc1,-1.0%,-6,-6%,-2%
O=C(Cc1ccccc1)NCC(=O)OCc1cccc([N+](=O)[O-])c1,0.9%,.,38%,0%
CC1(c2nnc(Cc3ccccc3)o2)CC(c2ccccc2F)=NO1 (configuration not stated),-1.0%,.,-9%,.
CCOc1ccc(NS(=O)(=O)c2csc(C(N)=O)c2)cc1,2.4%,.,1%,-1%
CCOc1ccc(N=C2SC(C(=O)O)CC(=O)N2C)cc1 (configuration not stated),0.5%,-17,4%,-4%
C=CCS/C(=N\n1cnc2ccccc2c1=O)N1CCCCC1,1.1%,-4,-2%,-32%
CN(CC(=O)Nc1ccccc1Cl)C(=O)c1cccc(S(=O)(=O)N2CCN(c3ccc(F)cc3)CC2)c1,-2.9%,.,0%,-28%
Nc1c(Cl)cc(Cl)cc1C(=O)OCC(=O)NC1CC1,-0.1%,26,11%,-10%
CCOC(=O)C(CC)(CCC(=O)O)c1csc(N)n1 (configuration not stated),1.4%,-18,2%,-1%
O=C(C1CCC(CNS(=O)(=O)c2cccc3cccnc23)CC1)N1CCCC1 (configuration not stated),-0.2%,0,-1%,-8%
COc1ccc(-n2ccc(=O)c(C(=O)O)n2)c(OC)c1,-3.9%,.,18%,5%

# Pulled by structure from the list above, two records:
SMILES,Rango-impB inh,GLA inh pH 4.5,Rango dissoc inh,miR-21 FLuc
CC1C(=O)O[C@@H]2C[C@@H](C)[C@@H]3CCC(=O)[C@@]3(C)[C@@H](O)[C@H]12 (some centres not stated),-0.3%,-4,-19%,-1%
COc1cc(CNCc2ccccn2)ccc1OCc1ccc(Cl)cc1,-3.5%,3,-7%,-16%

# As entered above.
# Entry for COc1ccc(-n2ccc(=O)c(C(=O)O)n2)c(OC)c1 under miR-21 FLuc: 5%
# Entry for CC1(c2nnc(Cc3ccccc3)o2)CC(c2ccccc2F)=NO1 (configuration not stated) under Rango dissoc inh: -9%
# Entry for CCOc1ccc(NS(=O)(=O)c2csc(C(N)=O)c2)cc1 under miR-21 FLuc: -1%
# Entry for Cc1ccc(C(=O)C2CCN(CC(=O)NC3CCCC3)CC2)cc1 under Rango-impB inh: 1.3%
# Entry for CCOC(=O)C(CC)(CCC(=O)O)c1csc(N)n1 (configuration not stated) under GLA inh pH 4.5: -18
# Entry for CCOc1ccc(N=C2SC(C(=O)O)CC(=O)N2C)cc1 (configuration not stated) under GLA inh pH 4.5: -17
